Bioassay records as filed in PubChem.
NPYLR7 agonist – agonists of mosquito NPYLR7 receptor, primary screen, cell-based, Aedes aegypti, calcium fluorescence, mosquito biting behavior; Aedes aegypti neuropeptide Y-like receptor 7 (NPYLR7); HEK293T NPYLR7/Galpha15, GCaMP6s calcium fluorescence; activation, % at 10 µM; 0.15% of 270,000 active; in the data active means activation above about 40%;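 further: 0% = vehicle and 100% = reference agonist at the receptor; some compounds past the cut are filed as inactive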
NPYLR7 agonist max-min – recorded beside NPYLR7 agonist, whose call it bears; activation, %; measured here: Max-Min RFU normalised activation; some inactives read as strong as hits;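 span of the calcium signal over five minutes; 0% = vehicle and 100% = native peptide agonist; compound fluorescence can raise it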
* hit, by the source's call; & = joins results of further samples.

structure | NPYLR7 agonist | NPYLR7 agonist max-min
C=CCn1c(SCC(=O)NCCC)nc2c([nH]c3ccccc32)c1=O | -5 | -1
Cc1cc(C)c(C)c(S(=O)(=O)NCC(C)C(=O)OC(C)C)c1C (stereo not given) | 2 | 8
O=C(NC1CCC[C@H]1OCc1ccccc1)c1cncn1-c1ccc(-c2cc(C(F)(F)F)cc(C(F)(F)F)c2)cc1 (stereo not given in full) | 11 | 16
COc1ccccc1-c1cccc(C(=O)N[C@H]2COC[C@@H]2OC)c1 | 22&3 | 8&2
COc1cn(CC(=O)NC(C)C)c(CSc2nnnn2C)cc1=O | -1 | -7
CCC1CN(CCC(=O)N2CCN(Cc3csc(C)n3)CC2)Cc2cc(OC)ccc2O1 (stereo not given) | 25 | 8
Cc1nc(N)ncc1-c1nnnn1-c1ccc(F)cc1 | 6 | 10
CCN(CC)c1ccc(C2NC(=O)NC(C)=C2C(=O)OCC2CCCO2)cc1 (stereo not given) | -4 | -8
C=CCN(CC(O)CN1CCOCC1)CC1CC(c2ccc(Cl)cc2)=NO1 (stereo not given) | -1 | 6
CC(Cn1cncn1)NCc1cn(C)nc1-c1ccc(C2CCCCC2)cc1 (stereo not given) | 3&2 | -3&0
CCc1ccc(C2COCCN2C(=O)Cc2c(C)noc2Cl)o1 (stereo not given) | 3 | -2
CC(C)c1ccc(CNC(C)(C)CO)cc1 | -2 | -1
CCCN1C(=O)NC(c2ccccc2)C2=C1CN(CN1CCCCC1)C2=O (stereo not given) | -3 | 18
COc1ccc(Nc2nc(N3CCN(c4ccccc4OC)CC3)nc3[nH]ncc23)cc1 | 2 | -1
Cc1nc(SCC(=O)c2ccc(OC(F)F)cc2)n[nH]1 | -1 | -2
COc1cn(C)c(C(=O)Nc2ccc(C)cc2)cc1=O | 0 | -3
CCCS(=O)(=O)N1CCCC1C(=O)O (stereo not given) | 5 | 9
Cc1cc(C(=O)Nc2nccs2)c(C)s1 | 5 | 10
Cc1cccc(CN2CCN(Cc3ccc(C)o3)C(CCO)C2)n1 (stereo not given) | -2 | -5
O=C(CSc1nc2c([nH]c3ccccc32)c(=O)n1-c1ccc([N+](=O)[O-])cc1)N1CCCCC1 | 0 | 22
CN1CCC(=C2c3ccccc3C=Cc3ccccc32)CC1 | -5&-1&-3&5 | -6&-9&-6&2
O=c1c2cc(Cl)ccc2ncn1CCOc1cccc(Br)c1 | 4 | 3
Cc1ccc(NC(=O)N(Cc2cccc(OS(=O)(=O)c3cccc(C(F)(F)F)c3)c2)CC(C)C)cc1Cl | 1 | 12
CCCC(C)n1ncc2[nH]c(C(C)CC)nc21 (stereo not given) | -2 | -1
COc1ccc(-c2cc(NC(=O)C(C)C)n(-c3ccc(C)cc3)n2)cc1 | 24 | 24
CC(=O)N1c2ccccc2C2(CC(=O)N(Cc3ccccc3)C2=O)C1/C=C/c1ccccc1 (stereo not given) | -7 | -8
N#Cc1cc(C(=O)c2cc(Cl)ccc2O)c[nH]c1=O | 4 | 3
CN(c1ccc(O)cc1)S(=O)(=O)c1cccs1 | 4 | 12
O=C1C(=Cc2ccc(-c3cccc([N+](=O)[O-])c3)o2)SC(=S)N1C1CCS(=O)(=O)C1 (stereo not given) | -6 | -11
CC(C)c1nnc2n1CC(CNC1CCOC1=O)CC2 (stereo not given) | 3 | 9
COC(=O)C1CCN(C(=O)c2cn(C)nc2OC)CC1 | 2 | 11
O=C(NCc1ccccc1)c1ccc2nn(CC(=O)N3CCN(c4ccccc4)CC3)c(=O)n2c1 | -3 | 1
COc1ccc(S(=O)(=O)N2CCOCC2)cc1C(=O)Nc1ccc2c(c1)OCCCO2 | -7 | -9
CCCCc1nc(N2CCN(C(=O)C(C)(C)CCl)CC2)c2c(C)nn(-c3ccc(F)cc3)c2n1 | -4 | 0
CCc1nc2n(n1)C(=O)C(C(c1ccc(OC)c(OC)c1)N1CCc3ccccc3C1)S2 (stereo not given) | -7 | -12
CCC(=O)NCC(c1c(F)cccc1Cl)N1CCOC(C)C1 (stereo not given) | 2 | 0
Cc1cc(-c2c(-c3ccccc3)ncn2CCN(C)S(C)(=O)=O)n[nH]1 | 3 | 1
CCOc1ccc(-c2cc3c(=O)n(CC(=O)NCCCc4ccccc4)ccn3n2)cc1 | 11 | 7
CN(C(=O)c1cccc(C(=O)NC2(C#N)CCCC2)c1)c1ccccc1 | 8 | 2
CC(=CC(=O)C(F)(F)F)NNC(=O)Cn1ccc(C(F)(F)F)n1 | -5 | -8
COc1cc(Br)ccc1NC(=O)C1CCC(C(=O)O)C1 (stereo not given) | 6 | -1
CCSc1nnc(NC(=O)CSc2nnc(NC(=O)Cc3ccccc3)s2)s1 | -4 | 7
CCNC(=O)N1CCC(C(NC(=O)c2ccccc2)C(=O)N2CCOCC2)CC1 (stereo not given) | 2 | 0
O=C(O)Cc1cc(=O)[nH]c(=O)[nH]1 | -4 | -6
Cc1occc1C(=O)Nc1ccccc1C(=O)N1C[C@H](N(C)C)C[C@H]1CO | 2 | 11
CN(CC(=O)Nc1ccc(Cl)cn1)CC(=O)Nc1ccccc1Br | 5 | 8
CN(C)CCCn1ccnc1-c1c(F)cccc1F | 9 | 7
CCOC(=O)N1CCN(C(=O)CCc2csc(NC(=O)c3ccc[nH]c3=O)n2)CC1 | -8 | -11
Cc1ccccc1NS(=O)(=O)c1c[nH]c(=O)[nH]c1=O | -11 | -17
Cc1ccc(C2CSCCN2C(=O)C2CC2(Cl)Cl)o1 (stereo not given) | 2 | 9
CCC(C)NCc1ccccc1-c1ccc(S(C)(=O)=O)cc1 (stereo not given) | 4 | 4
CCN1C(=O)NC(c2ccsc2)C2=C1CN(CC(=O)N1CCN(c3ccccc3OC)CC1)C2=O (stereo not given) | 1 | 13
Nc1ccc2oc(-c3cccnc3)nc2c1 | 2&3 | 2&2
Cn1cc(CN(C(=O)c2ccccc2N2CCOCC2)C2CC2)cn1 | -1 | -5
N#Cc1ccc(CN2CCCc3ccccc32)cc1 | -3 | -3
O=c1oc2ccc(Br)cc2cc1-c1csc(Nc2cccc(F)c2)n1 | 2 | 0
Cc1cc(-n2cccn2)ccc1-c1nccn1CCc1cnc[nH]1 | 2 | -1
COc1cccc(COC(CN2CCN(S(=O)(=O)c3cc(C)ccc3F)CC2)c2ccc(Cl)cc2)c1 (stereo not given) | -8 | -8
O=C(CSc1nnc(N2CCCC2)s1)Nc1ccc(Cl)cn1 | 3 | 1
COc1ccc(SC(C)C(=O)NS(=O)(=O)c2c(C)noc2C)cc1 (stereo not given) | -2 | 54

The results go on.
structure | NPYLR7 agonist | NPYLR7 agonist max-min
CN1CCN(n2c3c(c(SCC(=O)Nc4ccc(OC(F)(F)F)cc4)nc2=O)CCCC3)CC1 | -2 | -8
CN(CCN1CCCCCC1)C(=O)c1c(O)cccc1O | -4 | -8
CCCCN(C)c1nc(C)nc2c1sc1nc3c(cc12)COC(C)(C)C3 | 6 | 3
Cc1csc2[n+]1-c1ccccc1N(C(=O)Nc1ccccc1)CC2 | 0 | -2
COCCN(CCC(=O)NC1CC1)c1nc(C2CC2)nc2ccccc12 | -3 | 6
Cc1cccc(C(=O)NCc2cccnc2N2CCOCC2)n1 | 7 | 5
COCCCN1CCC(CNC2CCSCC2)C1 (stereo not given) | 12 | 8
Nc1cnc(-c2csc3ccccc23)cn1 | 20 | 10
O=C(CN1CCN(CCOc2cccc(Br)c2)CC1)N1CCCCC1 | 3 | 0
C/C(=N/Nc1nc(N2CCCCC2)nc(N2CCCCC2)n1)c1ccc(NS(C)(=O)=O)cc1 | -6 | -10
CN(C1(C)CCS(=O)(=O)C1)S(=O)(=O)c1ccc(C(C)(C)C)cc1 (stereo not given) | -1 | 33
COc1c[nH]c(C(=O)Nc2cccc(SC)c2)cc1=O | -5 | -6
O=C(NCc1ccc2ccccc2c1-c1ccccc1)C1(c2ccccc2)CCCCC1 | -7 | -11
COc1ccc(CCC(=O)N2C[C@H](N)C[C@H]2C(=O)NC(C)C)cc1OC | 8 | 1
Cc1ccccc1CN(Cc1ccc(F)cc1)CC(O)COc1ccccc1C (stereo not given) | 22 | 23
Cc1cc(C)n(-c2ccc(C(=O)Nc3cccc(Cl)c3)cc2)n1 | -8 | -12
O=S(=O)(Nc1ccc(Br)cc1Cl)c1ccc(F)cc1 | 22 | 11
CCCCOc1ccc(C(=O)Oc2coc(CSc3nc(C)cc(C)n3)cc2=O)cc1 | -6 | 5
COc1ccc(N(C)S(=O)(=O)c2ccc(OC)c(N3CCN(C(=O)COc4cccc(Cl)c4)CC3)c2)cc1 | 7 | 3
Fc1ccccc1N1CCN(Cn2nc(-c3ccncc3)oc2=S)CC1 | -5 | -12

Profiles as entered above. Values in the order: NPYLR7 agonist | NPYLR7 agonist max-min
CN1CCN(n2c3c(c(SCC(=O)Nc4ccc(OC(F)(F)F)cc4)nc2=O)CCCC3)CC1 as listed: -2 | -8
C/C(=N/Nc1nc(N2CCCCC2)nc(N2CCCCC2)n1)c1ccc(NS(C)(=O)=O)cc1 as listed: -6 | -10

Five structures out of the list, ordered by molecular weight, highest first:
structure | NPYLR7 agonist | NPYLR7 agonist max-min
O=S(=O)(Nc1ccc(Br)cc1Cl)c1ccc(F)cc1 | 22 | 11
CN(C1(C)CCS(=O)(=O)C1)S(=O)(=O)c1ccc(C(C)(C)C)cc1 (stereo not given) | -1 | 33
COCCN(CCC(=O)NC1CC1)c1nc(C2CC2)nc2ccccc12 | -3 | 6
Cc1csc2[n+]1-c1ccccc1N(C(=O)Nc1ccccc1)CC2 | 0 | -2
CN(CCN1CCCCCC1)C(=O)c1c(O)cccc1O | -4 | -8

The list continues:
structure | NPYLR7 agonist | NPYLR7 agonist max-min
CC1CCC(=NN(c2ccccc2)c2ccccc2)CC1 (stereo not given) | 8 | 5
Cc1c(C(=O)NCc2cccc(C(F)(F)F)c2)sc(=O)n1Cc1ccccc1F | 3 | 1
CC(CC(=O)N(CC(=O)Nc1cc(-c2ccccc2)nn1-c1ccccc1)Cc1ccco1)CC(C)(C)C (stereo not given) | 11 | 6
Cc1cnccc1N1CCCN(C2CCN(C(=O)c3ccccc3)CC2)CC1 | 2 | 0
COC(=O)N(C)c1ccc(NC(C)c2ccccc2F)cc1 (stereo not given) | 9 | 8
CCCc1nc(C(=O)N2CC[C@@](C)(O)[C@@H](CC)C2)cs1 | 0 | 2
O=C(C1CCCC1)N(c1ccccc1)C1C=CS(=O)(=O)C1 (stereo not given) | 5 | 5
CCOc1ccc(SCc2c(C)noc2C)cc1 | 1 | -2
COc1ccc(C(CC(=O)N2CCN(c3ccncc3)CC2)c2ccccc2)cc1 (stereo not given) | 3 | 7
CCNC(=O)C1(C)CCN1CCC(=O)c1ccc(Br)cc1 (stereo not given) | 3 | 1
Cc1ccc(C(=O)N2CCC3(CC2)C(=O)N(CC(=O)NCc2ccc(F)cc2)CN3c2ccccc2)cc1[N+](=O)[O-] | 20 | 24
O=C(COc1ccc2ccccc2c1)N=Nc1c(O)[nH]c2ccc(F)cc12 | -13 | -12
COc1ccc(OC)c(Nc2nn3c(=O)c4cc5c(cc4nc3s2)OCO5)c1 | 4 | 1
O=[N+]([O-])c1cc2c(cc1C=NNS(=O)(=O)c1ccc(Br)cc1)OCO2 | -17 | -24
O=C(O)CCC(=O)N1Cc2[nH]cnc2C[C@H]1c1nc(-c2ccc(F)c(Cl)c2)no1 | -12 | -16
CCNC(=O)C1(C)CCCN(C=C2N=C(c3c(C)noc3C)ON2)C1 (stereo not given) | 9 | 2
CCC1CN(C(=O)c2c[nH]c(C)cc2=O)CCC(=O)N1Cc1ccccc1 (stereo not given) | 2 | 1
COc1ccc(S(=O)(=O)NC(=O)C2(C)CCN2C(=O)Cc2ccccc2Cl)cc1 (stereo not given) | 2 | -3
COc1ccccc1CN1CCC(CN(CC(C)C)C(=O)/C=C/c2ccco2)CC1 | -1 | -2
CN(C)CC(C)(C)CNC(=O)c1c2c(nc3cc(Br)ccc13)CCCC2 | 0 | 14
O=c1cccnn1CCCNS(=O)(=O)c1cc(C(F)(F)F)ccc1Cl | -9 | -8
CCn1c(SCc2cc(C(F)(F)F)ccc2F)nnc1-c1c2c(nc3ccccc13)CCC2 | 0 | 8
O=C(NCc1ccc2c(c1)OCO2)c1nn(-c2ccc(F)cc2)c2c1CCC2 | 1 | 0
Cc1c(Cl)cccc1NC(=O)Cn1cnc2nc(N3CCOCC3)ncc2c1=O | -7 | -9
Cc1ccc(Cc2nsc(N3CCC(CNC(=O)Nc4ccccc4F)CC3)n2)cc1 | 16 | 18
Cc1[nH]nc2c1C(c1ccc(Cl)cc1)CC(=O)N2 (stereo not given) | 9 | 8
CC[N+](CC)(CC)CC(=O)Nc1c(C)cccc1C | 3 | -47
CN1CCc2c(sc(N=Cc3cc(Cl)cc(Br)c3O)c2C(=O)OC(C)(C)C)C1 | 8 | 3
CC(=NNC(=O)Cc1ccccc1)c1cccs1 | 6 | 4
CC(=O)Nc1cncc(-c2ccc(CN(C)C)cc2)n1 | 5 | 2
Cc1cc(-c2cc(NC3CCNCC3)nc3[nH]ccc23)c(=O)[nH]c1C | 53 | 27
CCCC1=NN2C(=N)/C(=C/c3cccc(Br)c3)C(=O)N=C2S1 | -2 | 5
Cc1cc(Oc2ccc(C(C)C)cc2)nc(SCc2ccc(F)c(F)c2)n1 | -12 | 2
CC(=O)OC[C@H]1O[C@@H]2C[C@@H](Nc3c(Cl)cccc32)[C@@H]1OC(C)=O | 9 | 22
Cn1ccnc1SCC(=O)c1ccccc1 | -1 | -1
Cc1ccc(Nc2nc(N3CCN(c4ccccc4)CC3)nc3nccnc23)c(C)c1 | 2 | 2
CCOc1cc(C2Nc3cc(C)c(C)cc3N=C3CC(C)(C)CC(=O)C32)ccc1OC(=O)C1CC1 (stereo not given) | -3 | -9
O=C(OCC(=O)N1CCCCCC1)c1ccccc1C(=O)c1ccccc1 | -1 | -2
COc1cccc(-c2cn[nH]c2C2CCN(C(=O)CN3CCOCC3)CC2)c1 | 2 | -7

Only part of the results is shown (hit frequency here may not be typical).
